Screening data (PubChem BioAssay)
AID504770: growth inhibition of E. coli YBA685, primary screen, V. cholerae RctB inhibitors; E. coli YBA685 rctB-dependent plasmid, OD600 growth, 3 h; stronger effect = lower value; z-score (no concentration beside the values); actives 0.27% (n = 130,000);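 active means z-score under -2 on both plates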;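 further: wells of about 30 µL received 100 nL stock; score is relative to mean and SD of the test wells; the first replicate is given; strong numbers were not always called active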
CapD inh: Bacillus anthracis CapD inhibitors, primary screen, biochemical, fluorescence intensity. CapD gamma-glutamyltranspeptidase (Bacillus anthracis Ames Ancestor). purified CapD enzyme, fluorescence intensity read-out; stronger effect = lower value; some hits fall short of the stated cut. z-score (test concentration not listed). actives 0.23% (n = 140,000). AID 492967, 2010;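 active means z-score under -4 in either of two replicates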;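 further: stock transfer was 100 nL into about 40 µL; score is relative to mean and spread of the plate; one replicate is shown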
* hit, by the source's call; nt = not tested or not shown.

Molecule,AID504770,CapD inh
CN(C)c1nc(=S)nc(NCc2ccccc2)[nH]1,-0.65,0.01
N#CC1(c2cccc(Br)c2)C(=O)Nc2ccccc21 (centres undefined),0.8,-1.23
c1ccc(COc2cnc(N3CCNCC3)nc2)cc1,0.15,65.7
CC(=O)O[C@H]1CC[C@@]2(C)C(=CCC3C2CC[C@]2(C)C(=O)CCC32)C1 (some centres undefined),0.05,nt
CCOC(=O)c1sc2nc(SCC#N)n(CC3CCCO3)c(=O)c2c1C (centres undefined),nt,0.25
CCOC(=O)c1ccc(NC2=NC3(CCCCC3)Cc3ccccc32)cc1,nt,-0.26
CCOc1ccc(NC(=O)CSc2nc3ccccc3c(=O)n2NC(=O)c2ccc(OC)cc2)cc1,nt,-0.225
Clc1ccc(Cc2nn[nH]n2)cc1,nt,-0.165
CCONC1=NCC(C)S1 (centres undefined),1.4,nt
O=C(Nc1ccccc1)NC1CS(=O)(=O)CC1NC(=O)Nc1ccccc1 (centres undefined),-1.55,nt
CCc1ccc(Nc2ncnc3sc(C)cc23)cc1,-0.15,1.14
N#CCCn1cc(/C=N/NC(=O)c2ccncc2)c(-c2ccc(F)cc2)n1,-0.85,nt
S=c1[nH]ccn1-c1ccc(Cl)cc1,-0.65,nt
O=[N+]([O-])c1ccc(S(=O)(=O)Nc2cccc(-c3cn4ccccc4n3)c2)cc1,nt,-0.12
CCOC(=O)C1=C(CN2CCc3ccccc3C2)NC(=O)NC1c1ccc(OC(C)C)cc1 (centres undefined),-0.25,0.09
O=C(CSc1nnc(-c2ccccc2)o1)NC(=O)Cc1ccccc1,-0.3,nt
O=C(NCCCN1CCN(Cc2c(F)cccc2Cl)CC1)c1cccc(C(F)(F)F)c1,-0.25,-0.85
Cc1ccc(SCC2(O)CCN(C(=O)c3ccc(Cl)cc3)CC2)cc1,nt,-0.46
CCS(=O)(=O)N1CCN(CC2CC3C=CC2C3)CC1 (centres undefined),-0.2,nt
Cn1c(=O)n(CC(=O)N2CCC3(CC2)OCCO3)c(=O)c2ccccc21,nt,0.85
CCOC(=O)C1C(C)=NC(=O)NC1/C=C/c1ccccc1 (centres undefined),0.6,-0.045
Cc1ccc(-n2nc(C)c3c(C(=O)Nc4cccnc4)cc(C)nc32)cc1,-0.4,-0.28
CCOC(=O)CS(=O)(=O)c1nc(-c2ccccc2)cc(C(F)(F)F)n1,-0.3,-0.21
COc1cccc(NC(=S)N(CCN(C)C)C(C)c2cccnc2)c1 (centres undefined),0.9,-0.09
O=C(COC(=O)c1ccc(Br)cc1)NCc1ccccc1,-0.1,0.26
CCOC(=O)c1ccc(-c2ccc(C3Nc4ccccc4-c4nnc(SCC)nc4O3)o2)cc1 (centres undefined),1.85,0.94
O=C1NC(=O)N(C2CCCCC2)C(=O)/C1=C\C=C\c1ccco1,-1.1,-0.295
O=c1cc(-c2ccccc2)nc2nc[nH]n12,-0.2,0.755
O=C(O)C1(c2ccccc2)CCCC1,-0.55,0.12
COC(=O)CC1=C(C)C(=O)CC2C(C)(C)CCC[C@]12C (some centres undefined),-0.8,0.05
CCc1cc2c(=O)c(-c3nc4ccccc4[nH]3)coc2c(CN2CCCC(C)C2)c1O (centres undefined),0.75,0.43
COC(=O)COc1ccc(C2C3=C(CC(C)(C)CC3=O)OC3=C2C(=O)CC(C)(C)C3)cc1,nt,0.075
CN(Cc1cc(=O)n2ccsc2n1)C1CCCCC1,0.65,35
CCCCc1ccc(NC(=O)CS)cc1,1.1,0.055
O=C(Cn1cnc2ccccc21)NN=C1CCCCCC1,-0.4,nt
CC1=C/C(=N\NC(=S)Nc2ccc(F)cc2)CC1,-0.1,nt
CCN1CCCC1CNC(=O)Cn1cccc1C(=O)c1ccccc1 (centres undefined),-0.5,-0.765
CC1=CC(C)C2(CO)COC(c3cccnc3)C1C2C (centres undefined),nt,0.36
Cc1ccc(N2CCN(C(=O)c3ccccc3)CC2)c(C)c1,-0.7,0.415
O=c1c2c(n3cnnc3n1-c1ccccc1)-c1ccccc1CC21CCCCC1,nt,-0.025
O=S(=O)(c1ccc(Nc2nc3ccccc3n3nnnc23)cc1)N1CCOCC1,-0.4,8.95
Fc1ccc(N2CCN(C3C4CC5CC(C4)CC3C5)CC2)cc1 (centres undefined),-0.35,-0.175
COc1cc(-c2nnc(SCC(=O)NC(=O)c3ccc(C(C)(C)C)cc3)o2)cc(OC)c1OC,0.35,nt
CCOc1ccc2nc(Nc3ncc4c(n3)CCCC4=O)nc(C)c2c1,-0.85,3.33
CC(C)CNC(=O)c1ccc(CN2CCOCC2)cc1,0,nt
Nc1nc2c(c(Nc3ccccc3)n1)C(=O)CC(c1ccccc1)C2 (centres undefined),0.8,0.51
Cc1c(C(=O)NC(=S)Nc2ccc(N3CCCCC3)c(Cl)c2)oc2ccccc12,0.3,0.03
COc1ccc(OC)c(S(=O)(=O)c2c(OC)ccc(OC)c2C(=O)O)c1,-0.2,0.215
N#CC(C#N)=NNc1ccc(OC(F)(F)F)cc1,nt,-2.06
CC(=O)N1c2ccccc2NC2=C(C(=O)CCC2)C1c1ccc(Cl)cc1 (centres undefined),-0.5,-0.915

One compound at a time (already shown). Order of screens: AID504770	CapD inh
`N#CC(C#N)=NNc1ccc(OC(F)(F)F)cc1` reads nt	-2.06
`O=C(Cn1cnc2ccccc21)NN=C1CCCCCC1` reads -0.4	nt
`O=C(O)C1(c2ccccc2)CCCC1` reads -0.55	0.12
`Nc1nc2c(c(Nc3ccccc3)n1)C(=O)CC(c1ccccc1)C2` (centres undefined) reads 0.8	0.51
`O=c1c2c(n3cnnc3n1-c1ccccc1)-c1ccccc1CC21CCCCC1` reads nt	-0.025

(cont.)
Molecule,AID504770,CapD inh
CN(c1ncc(C(F)(F)F)cc1Cl)N1C(=O)c2ccncc2C1=O,nt,-0.535
N#Cc1ccc(S(=O)(=O)c2ccc(Cl)cc2)nc1,0.3,0.705
CC(c1nnc(SCc2ccc(C#N)cc2)n1-c1ccc(Cl)cc1)N1CCCCC1 (centres undefined),-0.7,nt
O=S(=O)(c1ccc(Cl)cc1)N(Cc1ccco1)CC1CCCO1 (centres undefined),nt,-1.44
Nc1c(Cl)cc(C(=O)Nc2cc(Cl)cc(Cl)c2)cc1Cl,nt,-0.86
CCOc1cc(C2c3c(oc4ccc(F)cc4c3=O)C(=O)N2CCc2ccc(OC)cc2)ccc1O (centres undefined),-1.6,1.33
CCc1ccc(NC(=O)CSC2=C(C#N)C3(CCCCC3)C(C#N)C(=O)N2)cc1 (centres undefined),0.25,-0.265
O=c1c(-c2ccc3c(c2)OCCO3)coc2cc(O)cc(O)c12,0.8,-0.525
COc1ccc(C(=O)NCc2nnc(SCC(=O)c3ccccc3)n2C)cc1,-0.55,-0.455
O=C1CSCC(=O)N1c1ccccc1N1CCOCC1,0.8,1.26
CCOC(=O)c1c(NC(=O)CN(CC)CC)sc2c1CCC/C2=N\O,-0.4,nt
FC(F)(F)c1cccc(-c2nnc(-c3ccc(Cl)cc3Cl)o2)c1,nt,0.93
Cc1ccc(/C=C2\N=C(c3ccccc3)OC2=O)cc1,nt,0.715
CCOC(=O)C1=C(C)N=c2s/c(=C/c3cccc([N+](=O)[O-])c3O)c(=O)n2C1c1ccc(OC)c(OC)c1 (centres undefined),nt,-0.065
COc1ccc(C2OCC3(COC(C)=O)C(C)C=C(C)C2C3C)cc1 (centres undefined),nt,-0.23
CCc1ccc(NC(=O)C23CC4CC(CC(C4)C2)C3)cc1,-0.2,0.31
NC(=O)CSc1nc2sc3c(c2c(=O)n1-c1ccccc1)CCCCC3,nt,-0.31
O=C(COc1ccccc1)NCc1ccc2[nH]c3c(c2c1)CCCC3,-0.9,0.82
Cc1ccc(C(=O)Nc2cc3c4c(c2)C2CCCC2CN4CC2CCCC32)cc1 (centres undefined),nt,0.63
COc1ccc(C2C3=C(CC(C)(C)CC3=O)NC3=C2C(=O)CC(C)(C)C3)cc1O,nt,-0.8
Cc1csc(=O)n1CCSc1nnc(-c2cccs2)n1-c1ccccc1,-0.4,nt
NC1=NC(=O)C(CC(=O)Nc2ccc(Cl)c(C(F)(F)F)c2)S1 (centres undefined),0.6,-0.225
COc1ccc(N2C(=O)CCC(C(=O)N3CCN(c4ccccc4)CC3)C2c2ccc(F)cc2)cc1 (centres undefined),nt,4.84
Cc1ccc(N2CC(C(=O)OCC(=O)c3ccc[nH]3)CC2=O)cc1 (centres undefined),-0.2,nt
CCOC(=O)CSc1nc(C)cc(=O)[nH]1,-0.35,-0.35

3 structures already listed, arranged by SMILES length, falling:
Molecule,AID504770,CapD inh
COc1ccc(N2C(=O)CCC(C(=O)N3CCN(c4ccccc4)CC3)C2c2ccc(F)cc2)cc1 (centres undefined),nt,4.84
COc1ccc(C2C3=C(CC(C)(C)CC3=O)NC3=C2C(=O)CC(C)(C)C3)cc1O,nt,-0.8
Cc1ccc(C(=O)Nc2cc3c4c(c2)C2CCCC2CN4CC2CCCC32)cc1 (centres undefined),nt,0.63

Continuation:
Molecule,AID504770,CapD inh
COc1cc(-c2nc(C=Nc3ccc4ccccc4c3)c(O)o2)cc(OC)c1OC,nt,0.575
COC(=O)c1c(C)nc(C)c(C(=O)OC)c1-c1ccc(OC)cc1,nt,-0.605
CCCn1c(=O)c(C#N)cn(-c2ccccc2C)c1=O,1.6,0.59
Cc1ccc(CCN2CC(C(=O)NCCc3ccccc3)CC2=O)cc1 (centres undefined),-0.9,-0.47
CC(=O)Nc1ccc(OC(=O)N2CCCC2)cc1,-0.35,nt
CCOC(=O)c1cc(C#N)c(C)nc1N1CCN(C(=O)OCC2CCCCN2Cc2ccc(OC)c(F)c2)CC1 (centres undefined),nt,2.16
CN(C)/N=C/c1ccc(P(N2CCOCC2)N2CCOCC2)o1,0.2,nt
O=c1ccc(-c2ccc(S(=O)(=O)NCCN3CCCC3)s2)n[nH]1,-0.8,4.79
O=C1NC2(CCN(C(=O)c3ccc(Cl)cc3)CC2)N=C1c1ccccc1,-0.4,0.03
CC(C)(C)/C=N/NC(=O)c1nc(-c2ccc(C(C)(C)C)cc2)no1,0.2,-0.92
O=C(CCc1ccco1)Nc1ccc(-c2nnc3n2CCCCC3)cc1,0.15,nt
OCC#Cc1ccc(-c2cccnc2)s1,0.55,69.6
COc1ccc(-c2noc(COc3ccc(C)cc3Br)n2)cc1OC,nt,0.11
COC(=O)C(Cc1c[nH]c2ccccc12)NS(C)(=O)=O (centres undefined),0.45,nt
CC1(C)CN=C(Nc2ccc(F)c(Cl)c2)S1,-0.75,-0.645
N#CC1=C(C2CC2)CC(c2ccccc2)C(C#N)=C1N (centres undefined),-0.45,8.37
Cc1ccc(C2=NC(=O)/C(=C/c3cc(O)c(O)c(Br)c3)S2)cc1,3.95,-0.44
Cc1cc(C)nc(OC(Cc2ccncc2)c2ccc(C(F)(F)F)cc2)n1 (centres undefined),nt,-0.05
C=CCN1C(=O)NC(=O)/C(=C/c2ccc(OCc3ccc(Cl)cc3)c(OC)c2)C1=O,nt,0.63
CCOC(=O)C1=C(C(=O)OCC)SC(=C2C(=S)C(C)(C)N(C(=O)c3ccccc3)c3cc(OC)ccc32)S1,nt,1.2
CCc1nnc(N2C(=O)c3ccccc3C2(O)c2ccc(Cl)cc2)s1 (centres undefined),-0.95,0.605
O=C1c2ccccc2NC2(C(=O)N(Cc3c(Cl)cccc3Cl)c3ccccc32)N1c1ccccc1 (centres undefined),nt,10.3
COc1ccc(C(=O)Oc2ccc3c(C)cc(=O)oc3c2)cc1OC,0.4,-0.1
Cc1cc(C)n(CCc2nc3c4ccccc4nc(NCCC(C)C)n3n2)n1,-0.35,14.7
CCOC(=O)c1cc(-c2nnc(-c3ccc(C)cc3)o2)c(C)nc1C,0.45,nt
CN1CC(=O)N=C1N,nt,1.05
O=C(c1ccc(F)cc1)N1CCCCC(Sc2ncnc3sc4c(c23)CCC4)C1=O (centres undefined),-0.3,-0.225
CCCCOC(=O)c1ccc(NC(=O)CN2C(=O)S/C(=C\c3ccccc3)C2=O)cc1,nt,-0.05
O=C(/C=C/c1ccco1)N(Cc1ccco1)Cc1cccs1,-2.25,nt
Nc1ccc(Br)cc1C(O)c1ccccc1Cl (centres undefined),-0.1,-0.32
CC(C)(C)c1csc(N)c1C#N,-1.35,-0.425
CCCc1cc(C(=O)N2CCCCCCC2)cs1,-0.2,1.06
COC(=O)c1c(C(=O)OC)c(-c2cccc(Cl)c2)n2c1CSC2,nt,0.24
O=S(=O)(c1ccc2nnn(O)c2c1)N1CCCCC1,-0.1,nt
Cc1cc(OCC(N)=O)c(C(C)C)cc1Cl,1.95,-0.465
O=C(Oc1cccc2cccnc12)c1ccccc1F,0.15,nt
CC(C)C(=O)c1cn(CC(=O)NCC2CCCO2)c2ccccc12 (centres undefined),0.6,nt
N#C/C(=C\c1ccc(-c2cccc(Cl)c2)o1)C(N)=O,-0.4,nt
CC(C)(C)c1nc2scc(-c3ccc(Cl)cc3)n2n1,0.85,9.29
CCCn1c(SCC(=O)Nc2ccccc2)n[nH]c1=O,0.15,nt
CCCC1CC(c2csc(C)n2)CCO1 (centres undefined),-0.55,0.135
CN(C(=O)C1CC(c2ccccc2F)=NO1)c1ccccc1 (centres undefined),0.3,66.1
